FGF22 binding: shifts melting point of recombinant human FGF22 | recombinant FGF22 thermal shift, SYPRO orange fluorescence; percent of sucrose octasulfate shift, DMSO zero | calls only at 9.99 µM | hit rate 1.5% among 340,000 | AID 651658;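 active = melting point raised past a set limit in the mean and every replicate; inconclusive = no clear call; three in four hits are not shown here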
Target sequence (Q9HCT0 whole entry, looked up): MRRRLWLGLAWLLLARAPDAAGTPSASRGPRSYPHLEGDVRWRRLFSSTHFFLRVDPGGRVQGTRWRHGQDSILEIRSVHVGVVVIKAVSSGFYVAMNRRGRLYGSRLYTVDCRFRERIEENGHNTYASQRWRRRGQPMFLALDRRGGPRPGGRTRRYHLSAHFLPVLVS
HNF4A DNA FP: change in binding of human HNF4 alpha to DNA; activity change, % at 10 µM; HNF4a-FITC DNA binding, fluorescence polarization, 1 h; hit rate 0.3% among 360,000; AID 1224865; P41235; in the data active = activity change above about 30%, passing the limit was not always enough;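 also: controls were the assay level and a saturating level of protein; the project sought stronger binding though the title names inhibitors; some compounds called inactive have numbers as strong as hits; positive values seem to mean higher polarization but the record does not say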
Target sequence (P41235 whole entry, looked up): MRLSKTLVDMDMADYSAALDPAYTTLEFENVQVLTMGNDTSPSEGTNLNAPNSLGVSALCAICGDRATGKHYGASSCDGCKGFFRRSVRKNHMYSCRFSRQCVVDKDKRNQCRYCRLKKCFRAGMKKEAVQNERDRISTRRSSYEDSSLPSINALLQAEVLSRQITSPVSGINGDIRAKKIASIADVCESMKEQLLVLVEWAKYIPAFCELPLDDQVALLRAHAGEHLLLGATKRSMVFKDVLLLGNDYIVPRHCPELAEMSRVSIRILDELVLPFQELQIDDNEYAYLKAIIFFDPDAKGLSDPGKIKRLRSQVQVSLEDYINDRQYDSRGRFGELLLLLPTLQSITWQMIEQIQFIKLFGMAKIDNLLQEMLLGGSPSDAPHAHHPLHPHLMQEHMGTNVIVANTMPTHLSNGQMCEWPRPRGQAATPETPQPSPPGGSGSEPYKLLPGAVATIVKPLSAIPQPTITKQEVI
Vif TR-FRET: inhibitors of Vif binding to APOBEC3G peptide, primary screen, biochemical, TR-FRET, GST-Vif 1-94, biotin-A3G peptide, dose response retest (AID 1117319) | TR-FRET GST-Vif / biotin-A3G peptide binding; higher % means a stronger effect; test concentration not given here; strong numbers were not always called active | inhibition, %, or IC50 in µM where a hit was titrated | hit rate 0.57% among 260,000;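 active = above the screen mean plus three standard deviations and confirmed in dose response; inconclusive = results disagree or hit not tested in dose response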;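 also: Vif residues 1-94 fused to GST binding biotinylated APOBEC3G peptide 110-148; 0% = full assay without inhibitor and 100% = GST in place of GST-Vif; retest series ran down from 100 µM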
E coli growth: inhibitors of Escherichia coli growth. OD600 absorbance (concentration not given with the values). OD600, 23 h; hits give low values. hit rate 0.21% among 330,000. AID 1053175;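 active = OD600 absorbance below the run mean of sample wells minus 3.6 SD, in any replicate, cut at about 0.56 in these data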;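 also: stock transfer was 300 nL into about 60 µL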
RanGTP-Impb inh: inhibitors of RanGTP-importin-beta interaction, primary screen, biochemical, FRET, CFP-Ran, YFP-importin-beta, homogeneous | cell-free CFP-Ran/YFP-importin-beta FRET ratio | inhibition, % (concentration not given with the values) | hit rate 1.1% among 300,000 | AID 2216;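 active = most replicates above 15%; inconclusive = exactly half above 15%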;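 also: 0% = DMSO wells and 100% = Ran loaded with GDP instead of GTP; wells of about 40 µL received 100 nL stock; the first replicate is given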
AF4-AF9 inh: MLL-AF4/AF9 protein interaction inhibition. inhibition, % at 10 µM. P42568. hit rate 0.47% among 350,000. AlphaScreen, biotin-AF4 peptide binding to FLAG-AF9;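 active = every replicate reaching a set inhibition limit, whatever the replicate mean, cut at about 25% in these data; inconclusive = mean inhibition reaches that limit but some replicates miss it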;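 also: 0% = plate neutral control median and 100% = total signal loss; the record names both 10 and 1 µM as test concentration; the first replicate is given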
UCH37 inh: human UCH37 deubiquitinating enzyme inhibition. Q9Y5K5. purified proteasome/UCH37, Ub-AMC cleavage fluorescence. inhibition, % (no concentration beside the values). hit rate 0.33% among 330,000. AID 588478;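 active = mean of two replicates above 20%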;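 also: 0% = compound-free wells with enzyme and 100% = wells lacking proteasome; stock transfer was 100 nL into about 20 µL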
Target sequence (Q9Y5K5 whole entry, looked up): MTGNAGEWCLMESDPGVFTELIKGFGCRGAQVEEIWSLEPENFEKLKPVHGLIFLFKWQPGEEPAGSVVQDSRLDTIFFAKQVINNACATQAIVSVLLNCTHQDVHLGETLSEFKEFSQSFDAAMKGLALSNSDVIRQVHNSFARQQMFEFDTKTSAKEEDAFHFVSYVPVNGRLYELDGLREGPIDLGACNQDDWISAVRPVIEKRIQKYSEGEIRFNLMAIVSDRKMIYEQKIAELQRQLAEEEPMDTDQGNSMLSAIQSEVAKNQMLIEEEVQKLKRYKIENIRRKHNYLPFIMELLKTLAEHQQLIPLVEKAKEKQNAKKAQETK
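assay system = human UCH37 enzyme supplied as purified proteasome complex | amount = proteasome at 0.15 nM in the dispensed enzyme solution | schedule = 30 min compound-proteasome preincubation then 25 min substrate reaction, room temperature | measured by = fluorescence, ex 355 nm, em 460 nm | benchmarks = no-proteasome wells (full inhibition) and compound-free wells (no inhibition)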
Active calls of the source: *; i = inactive; ? = inconclusive; nt = not tested or not shown; + = active, no number; & = joins results of further samples.

SMILES	FGF22 binding	HNF4A DNA FP	Vif TR-FRET	E coli growth	RanGTP-Impb inh	AF4-AF9 inh	UCH37 inh
O=C(Nc1cc(-c2nc3ncccc3o2)ccc1Cl)c1ccc2c(c1)OCO2	i	3.5	-7%	0.65	nt	0.4	-0.6
Cn1c(=O)c(C(=O)COC(=O)c2cc(C3CC3)nc3ccccc23)c(N)n(Cc2ccccc2)c1=O	i	nt	5%	nt	nt	0.8	3.6
CC(NC(=O)c1ccc(NC(=O)c2ccco2)cc1)c1ccccc1 (stereo not drawn)	i	-1.6	nt	0.72	0.3	0.6	2.9
COC(=O)c1cc(OC)c(OC)cc1NC(=S)N1CCN(Cc2ccccc2)CC1	nt	0.3	?	0.67	-3.9	nt	1.0
COc1cc(/C=N/NC(=O)Cn2cnc3c2c(=O)n(C)c(=O)n3C)cc(OC)c1OC	i	1.5	-5%	nt	4.5	-3.4	nt
CSCCC(NS(=O)(=O)c1ccc2c(c1)oc(=O)n2C)C(=O)NCc1ccccc1 (stereo not drawn)	i	0.5	1%	0.72	2.5	7.8	3.8
C=CCC1(CC=C)CCCN1C(=O)CC1C(=O)NCCN1Cc1ccc(OC)c(OC)c1 (stereo not drawn)	i	-3.5	6%	0.71	1.9	1.2	-2.1
CNS(=O)(=O)c1cc(NC(=O)c2cncn2-c2ccccc2)ccc1C	i	1.4	nt	0.69	-2.8	0.0	1.2
O=C(NCc1nc2ccccc2[nH]1)C1=C[C@@H](c2ccc(C(F)(F)F)cc2)C[C@@H](OCc2ccc(CO)cc2)O1	nt	-3.8	nt	nt	3.5	nt	0.2
COc1ccc(CCC(=O)OCC(=O)N(CC(C)C)c2c(N)n(Cc3ccccc3)c(=O)[nH]c2=O)cc1	i	-2.1	nt	0.68	0.8	0.3	1.9
CCN(CC)CCCNC(=S)N1CCC(c2nc3ccccc3[nH]2)CC1	i	-0.7	nt	0.7	0.1	5.3	0.6
CCCn1c(SCC(=O)N2N=C3/C(=C/c4ccc(OC)cc4)CCCC3C2c2ccc(OC)cc2)n[nH]c1=O (stereo not drawn)	i	2.8	22%	0.73	3.7	-5.6	-13
CCCCN(C=O)c1c(CC)nc2c(OCC(=O)N3CCOCC3)cccn12	i	1.3	nt	nt	nt	1.2	nt
CCOC(=O)C(CC(=O)O)N1CCCCC1 (stereo not drawn)	nt	-1.5	-2%	0.7	0.3	nt	-0.9
Cc1ccccc1NC(=S)N(Cc1ccccc1)Cc1cccs1	nt	-0.7	nt	0.74	2.7	0.8	2.2
COc1ccc(OC)c(-c2csc(N(CC3CCCO3)C(=O)C3CCCCC3)n2)c1 (stereo not drawn)	i	1.1	-1%	0.76	-1.7	-1.5	0.8
COC(=O)C1N[C@@H]([C@@H](NC(=O)COc2ccccc2)C(=O)NCc2ccccc2)SC1(C)C (stereo partly drawn)	i	3.9	nt	nt	-6.7	0.7	3.9
Cn1nc(C(=O)Nc2ccc(S(=O)(=O)N3CCCCC3)cc2)c2ccccc2c1=O	i	7.7	nt	0.72	3.9	2.7	1.2
COc1ccc(CCNC(=O)c2ccccc2N(C)S(=O)(=O)c2ccccc2)cc1	nt	2.5	-14%	0.7	-0.4	nt	4.8
O=S1(=O)CC(N2CCN(CCO)CC2)CN1Cc1cn(Cc2cccc(C(F)(F)F)c2)nn1 (stereo not drawn)	i	-2.9	nt	nt	nt	-3.3	nt
CC(=O)C1(O)CCC2C3CCC4CC(O)CCC4(C)C3C(=O)CC21C (stereo not drawn)	i	-2.3	6%	0.63	nt	3.9	0.7
C/C(=C(\C#N)C(=O)NCc1ccccc1)N(C)C	nt	1.8	-4%	nt	-2.2	nt	2.6
CCOC(=O)CCNC(=O)N1CCCC(C(=O)c2ccc3c(c2)OCO3)C1 (stereo not drawn)	i	2.5	8%	0.7	-3.5	0.0	0.5
CCCCNC(=O)NNC(=O)COc1cccc(C)c1C	i	-0.2	-11%	0.71	-2.1	-4.2	3.8
Cc1ccc(NC(=O)c2cccnc2)cc1S(=O)(=O)N(C)C	i	1.2	-10%	0.68	-2.6	-2.2	2.7

The list continues:
SMILES	FGF22 binding	HNF4A DNA FP	Vif TR-FRET	E coli growth	RanGTP-Impb inh	AF4-AF9 inh	UCH37 inh
Cc1cccc(C)c1NC(=O)C1(C)CN(S(C)(=O)=O)CC(=O)N1CCCN1CCOCC1 (stereo not drawn)	i	-0.7	nt	nt	nt	-0.8	nt
O=C(NNC(=S)Nc1ccc(Br)cc1Cl)c1ccncc1	i	0.3	nt	0.64	0.4	-1.8	7.0
C[C@@H](NC(=O)c1nc[nH]c1C(=O)N1CCc2ccccc2C1)c1ccccc1	i	1.8	nt	nt	nt	1.2	-0.8
N/C(=N\OC(=O)c1ccc2c(c1)OCO2)c1cccc([N+](=O)[O-])c1	i	-2.5	-5%	nt	-13	1.6	nt
COc1ccccc1C(=O)NC(=O)CSc1nncn1C(C)C	i	2.8	1%	0.63	1.3	-0.4	-0.4
CC(C)c1ccc(C(=O)NNC(=O)C2CC=CCC2C(=O)O)cc1 (stereo not drawn)	i	-0.6	nt	0.72	1.3	0.6	5.0
Cn1cc(S(=O)(=O)Nc2ccc(F)cc2F)c(=O)n(C)c1=O	i	-0.8	-4%	0.75	0.7	-3.7	0.7
COc1c(O)cccc1/C=N/NC(=O)Cn1ccnc1C	i	-5.9	9%	nt	2.6	-2.5	nt
Cc1ccccc1NC(=O)NNC(=O)c1ccc2ccccc2c1O	i	-4.5	nt	0.73	?	-8.0	-101
CCOC(=O)c1ccc2c(c1)C1C=CCC1C(C(=O)O)N2 (stereo not drawn)	nt	nt	1.2µM*	0.73	nt	nt	13
COc1ccc2c(c1[N+](=O)[O-])CCC/C2=N/OC(=O)c1ccccc1SC	nt	1.8	4%	nt	4.6	nt	nt
CC(C)CNC(=O)c1ccc(C2SCC(=O)N2Cc2ccccc2)cc1 (stereo not drawn)	i	-0.2	?	0.68	1.9	-0.6	2.1
CC(CCc1ccccc1)NC(=O)c1ccccc1F (stereo not drawn)	i	0.8	nt	0.66	-3.8	4.6	4.0
Cc1c(C(=O)NCc2ccccc2)oc2ccc(S(=O)(=O)N3CCC4(CC3)OCCO4)cc12	nt	3.3	?	0.76	-3.0	nt	0.5
O=C1CC(NS(=O)(=O)c2ccc(F)cc2)CN1c1ccc2c(c1)OCCO2 (stereo not drawn)	i	-2.1	8%	0.67	1.3	1.0	0.7
Oc1cccc(Nc2nc(-c3ccccc3Cl)nc3ccccc23)c1	+	1.9	1%	nt	-0.9	-0.1	nt
O=C(NCc1ccccn1)C1C2C=CC(C2)C1C(=O)Nc1ccc(F)cc1 (stereo not drawn)	nt	-1.9	-2%	0.81	0.8	nt	3.8
CC[C@]12c3[nH]c4cc(-c5ccco5)ccc4c3CCN1C(=O)[C@@H](CC(=O)NC(C)(C)C)C[C@@H]2C(=O)N1CCN(C(=O)c2ccco2)CC1	i	-0.6	0%	0.7	nt	-0.5	-19
Cc1cc(C(=O)COC(=O)c2ccc3c(c2)OCO3)c(C)n1Cc1cccs1	nt	3.3	-3%	0.73	?	nt	-1.6
COC(=O)c1cc(=O)n(Cc2ccco2)c(=Nc2ccc(F)c(Cl)c2)s1	i	-2.3	6%	0.77	2.6	14	3.8
COc1ccc(S(=O)(=O)N2CCCCCC2)cc1C(=O)NCCc1ccc(F)cc1	i	2.4	nt	0.73	nt	-0.8	-2.4
O=C(Oc1ccc(Cl)c2cccnc12)N1CCCCC1	nt	-0.5	16%	0.66	0.5	nt	-3.2
O=C(CCn1nnc2ccccc2c1=O)N[C@@H](Cc1c[nH]c2ccccc12)C(=O)O	i	6.8	-9%	0.7	5.9	-0.5	3.4
C/C=C(/C)C(=O)O[C@H]1[C@@H](O)c2c(ccc3ccc(=O)oc23)OC1(C)C	nt	3.0	0%	nt	1.9	nt	-8.6
COc1ccc(N2C(=O)[C@@H]3[C@H](C2=O)[C@H]2c4ccccc4C=CN2[C@@H]3C(=O)Nc2ccccc2)cc1	nt	101	-4%&16%	0.67	nt	nt	30*

The list continues.
SMILES	FGF22 binding	HNF4A DNA FP	Vif TR-FRET	E coli growth	RanGTP-Impb inh	AF4-AF9 inh	UCH37 inh
Cc1ccc(N(CC(=O)Nc2cccc(Cl)c2C)S(C)(=O)=O)cc1	i	2.7	nt	0.63	3.0	4.9	1.6
Cc1noc(C)c1C(=O)NCc1ccccc1F	i	0.2	2%	0.68	-4.6	-1.2	0.7
Cc1ccc(Cc2nc(-c3ccccn3)no2)cc1	nt	-0.9	-3%	0.7	3.4	nt	2.2
Cc1ccc(NC(=O)C2CSC3(C)CCC(=O)N23)cc1S(=O)(=O)N1CCCCCC1 (stereo not drawn)	i	-2.9	-11%	0.72	nt	1.2	0.5
CC(C)COCC1CC2(CC(C)(c3csc(N)n3)OC2=O)C(=O)O1 (stereo not drawn)	nt	0.8	-10%&2%	0.75	nt	-1.6	1.3
CCN1C(=O)CSC1=NC1C2CC3CC(C2)CC1C3 (stereo not drawn)	nt	-1.6	0%	0.74	-1.3	nt	-0.1
Cc1cccc(Nc2nc(N3CCN(C)CC3)nc(N)c2[N+](=O)[O-])c1	i	-2.1	-4%	0.65	?	1.3	9.4
COc1cccc(/C=N/NC(=O)c2cnccn2)c1O	i	-0.1	72%	nt	-4.3	1.5	nt
O=Cc1ccc(Sc2ncccn2)o1	i	0.6	21%	0.75	nt	-2.6	2.9
CCOC(=O)CSc1cc(-c2ccccc2)nc2ncnn12	i	3.6	1%	0.69	-1.1	1.5	7.4
Cc1cc2nc(/C(C#N)=C/c3ccncc3)[nH]c2cc1C	i	7.0	nt	0.72	1.6	5.1	3.7
Cn1c(C(=O)N2CCN(c3ccccn3)CC2)cc2ccccc21	i	2.5	nt	0.68	-1.2	4.0	5.6
O=C(c1ccco1)N1CCN(C(=O)c2ccc(-c3cccc(C(F)(F)F)c3)o2)CC1	i	3.1	1%	0.68	-3.2	2.1	1.7
Cc1cccc(CCN(C(=O)Cc2cccs2)C(C(=O)NC2CCCCC2)c2cccnc2)c1 (stereo not drawn)	nt	-2.8	1%	0.64	1.1	nt	0.8
Cc1cc(C)n(-c2ccc(C(=O)Nc3ccc(C)c(S(=O)(=O)N4CCOCC4)c3)cc2)n1	i	1.5	12%	0.69	-8.1	-2.3	4.9
Cc1ccc(S(=O)(=O)/C(C#N)=C/c2c(N3CCC(C(N)=O)CC3)nc3c(C)cccn3c2=O)cc1	nt	2.9	5%	0.66	6.3	nt	8.5
N/C(=N\O)c1ccc(Oc2ccccc2Cl)c([N+](=O)[O-])c1	i	-3.6	?	nt	-0.5	0.2	nt
COc1ccc(-c2cc3ccc(O)cc3oc2=O)cc1OC	i	-36	nt	0.65	106*	-14	i
Cc1cc(Cl)c(S(=O)(=O)Nc2ccccn2)cc1OCC(N)=O	nt	2.3	19%	0.73	2.4	nt	-2.8
O=C(NCCCN1CCC(Cc2ccccc2)CC1)C1CC(=O)N(C2CCCC2)C1 (stereo not drawn)	i	0.5	1%	0.69	?	-5.6	4.8

A second format for 4 compounds above.
SMILES,FGF22 binding,HNF4A DNA FP,Vif TR-FRET,E coli growth,RanGTP-Impb inh,AF4-AF9 inh,UCH37 inh
CCN1C(=O)CSC1=NC1C2CC3CC(C2)CC1C3 (stereo not drawn),nt,-1.6,0%,0.74,-1.3,nt,-0.1
Cc1cccc(CCN(C(=O)Cc2cccs2)C(C(=O)NC2CCCCC2)c2cccnc2)c1 (stereo not drawn),nt,-2.8,1%,0.64,1.1,nt,0.8
CC(C)COCC1CC2(CC(C)(c3csc(N)n3)OC2=O)C(=O)O1 (stereo not drawn),nt,0.8,-10%&2%,0.75,nt,-1.6,1.3
Cc1cc(C)n(-c2ccc(C(=O)Nc3ccc(C)c(S(=O)(=O)N4CCOCC4)c3)cc2)n1,i,1.5,12%,0.69,-8.1,-2.3,4.9

From PubChem BioAssay

Some of the compounds tested. The share of hits here may be higher or lower than overall.
